PKD1 kinase inh – PKD1 (human) kinase inhibition | PKD1 kinase fluorescence polarization assay | actives 0.056% (n = 200,000) | inhibition, %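 (about 10 µM by stock and volumes)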 | Q15139 | AID 797;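 active means inhibition of 50% or more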;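 further: controls were vehicle for no effect and a reference inhibitor for full effect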
Target sequence (Q15139 whole entry, looked up): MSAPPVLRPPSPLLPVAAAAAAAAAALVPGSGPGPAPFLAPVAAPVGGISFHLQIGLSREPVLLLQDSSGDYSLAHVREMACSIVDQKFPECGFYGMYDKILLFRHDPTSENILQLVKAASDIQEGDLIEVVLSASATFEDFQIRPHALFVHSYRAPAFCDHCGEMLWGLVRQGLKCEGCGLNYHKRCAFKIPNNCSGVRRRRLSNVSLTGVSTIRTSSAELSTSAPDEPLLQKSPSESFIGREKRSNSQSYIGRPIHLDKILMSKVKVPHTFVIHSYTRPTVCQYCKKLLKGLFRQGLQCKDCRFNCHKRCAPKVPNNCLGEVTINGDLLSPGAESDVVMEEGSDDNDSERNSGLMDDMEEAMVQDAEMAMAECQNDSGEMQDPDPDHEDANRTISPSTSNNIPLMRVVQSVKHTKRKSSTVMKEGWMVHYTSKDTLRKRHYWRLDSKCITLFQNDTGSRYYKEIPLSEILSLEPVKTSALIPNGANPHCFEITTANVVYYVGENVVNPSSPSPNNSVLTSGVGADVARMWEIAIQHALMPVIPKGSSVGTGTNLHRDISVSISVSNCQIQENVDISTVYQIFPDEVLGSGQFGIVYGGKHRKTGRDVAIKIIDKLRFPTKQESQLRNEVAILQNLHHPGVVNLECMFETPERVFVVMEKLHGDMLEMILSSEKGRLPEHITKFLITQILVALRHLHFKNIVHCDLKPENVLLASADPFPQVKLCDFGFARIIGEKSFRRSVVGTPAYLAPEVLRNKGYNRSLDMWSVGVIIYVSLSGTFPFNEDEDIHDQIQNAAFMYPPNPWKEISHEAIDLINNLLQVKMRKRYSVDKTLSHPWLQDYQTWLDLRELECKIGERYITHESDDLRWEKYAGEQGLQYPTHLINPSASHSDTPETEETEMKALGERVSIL
GALR2 ag – GALR2 (human) receptor agonism. activation, %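 (tested at 5 µM)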. actives 0.48% (n = 140,000). GALR2-expressing cells, agonist activation read-out. AID 803. O43603;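 active means above mean plus 3 SD of all compounds, about 5% in these data, not always enough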;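 further: 0% = vehicle buffer wells and 100% = reference agonist at full effect; tested in CHO reporter cells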
HSV augment – increases HSV replication in cells; actives 0.005% (n = 220,000); maximum fold increase; HSV replication augmentation in cells, fold increase; AID 1956;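 active means peak rise of 1.5-fold or more in the series; tested in PC3 cells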;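 further: first round at 10 µM; read as green reporter fluorescence; hits show the peak of a series up to 25 µM; 1 = signal of infected wells without compound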
RGS16-Gao HTS – regulators of human RGS16-Galphao interaction | binding response (% of control), % at 10 µM | O15492+P09471 | bead-based flow cytometry RGS16-Galphao binding, fluorescence; actives lie on both sides | AID 1441 | actives 0.38% (n = 220,000);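 active means below 25% or above 175%, edge rows of some plates excepted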;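 further: Galphao activated by GDP with aluminum fluoride before binding; 100% = wells without compound and 0% = beads without RGS; some results beyond the cut were filed as inactive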
Insulin prom inh – TRM-6 insulin promoter activity inhibition | TRM-6 cells (human fetal islet line), insulin promoter-eGFP reporter, imaging; reporter expression induced with tamoxifen | inhibition, % at 2 µM | actives 0.9% (n = 130,000);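 active means inhibition above the mean plus 3 SD, with well images judged a real hit on visual review, cut at about 60% in these data, passing the limit was not always enough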
Insulin prom inh cell count – recorded beside Insulin prom inh, whose call it bears; normalized cell count, %; measured here: cell count, toxicity; reference of the scale not given here;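 cells exposed to compound for 48 h; stained nuclei by imaging scaled within each plate; lower means fewer cells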
HSV augment primary fold – second read-out of HSV augment, no call of its own (marks repeat the call); fold increase; compound at 10 µM; measured here: primary screen fold increase 10 uM; tested in PC3 cells;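 GFP signal in the first replicate; 1 = infected wells without compound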
* marks the source's active call; other numbers are inactive results; i = inactive; . = no result given; & = joins results of further samples.

SMILES	PKD1 kinase inh	GALR2 ag	HSV augment	HSV augment primary fold	RGS16-Gao HTS	Insulin prom inh	Insulin prom inh cell count
COc1cc(OC)cc(C(=O)N[C@H](C(=O)OCc2cc(=O)oc3cc(C)ccc23)C(C)C)c1	-2	-1.2	i	0.92	18	-87	51
Cn1c(=O)c2c(ncn2Cc2nnc(N)s2)n(C)c1=O	2	.	i	0.99	104	.	.
CC(C)CCn1c(O)c(N=NC(=O)c2ccco2)c2ccccc21	1	1.3	i	0.8	116	20	179
CC(=O)NC(=S)Nc1ccc(NC(=O)c2cccnc2Cl)cc1	.	.	i	0.87	99	.	.
CCN(Cc1cc(OC)c(OC)c(OC)c1)C(=S)Nc1cccc(SC)c1	.	.	i	0.88	91	.	.
CCC(=O)c1ccccc1OCCN1CCN(CC)CC1	6	.	i	1.1	111	.	.
COc1cccc(CNC(=O)CCC2CCCN(C(=O)c3ccoc3C)C2)c1 (stereo not drawn)	-3	.	i	1	94	.	.
COc1ccccc1C(=O)Nc1cc(Cl)ccc1O	-1	-1.1	i	1	105	.	.
Cc1cc(OCC(O)CN2CCN(CCO)CC2)ccc1C(C)C (stereo not drawn)	-14	0.0	i	0.95	145	32	78
CC1CCCC(C)N1C(=O)Cc1ccccc1 (stereo not drawn)	-2	-0.6	i	1.1	110	19	89
CCCc1[nH]n(-c2ccc([N+](=O)[O-])cc2)c(=O)c1C=NCCc1c[nH]c2ccccc12	-8	-3.6	i	0.9	105	0	77
CCC(O)C1CCN(Cc2cn(Cc3ccccc3)nc2-c2cc3ccccc3o2)CC1 (stereo not drawn)	4	.	i	0.82	106	-40	38
CC1(C)CC(C)(O)N(Cc2ccccc2)C(=S)N1 (stereo not drawn)	6	-0.7	i	0.93	106	5	98
O=[N+]([O-])c1ccccc1N(CC1CO1)S(=O)(=O)c1ccccc1 (stereo not drawn)	-8	.	i	1	69	.	.
CC(=O)c1ccc(NC(=O)CSC(C)C)cc1	-6	-1.2	i	0.96	102	.	.
COc1ccc(/C=N/NC(=O)C(C)N(c2ccc(OC)cc2)S(C)(=O)=O)cc1 (stereo not drawn)	-5	.	i	0.94	103	.	.
CCCCn1nnnc1SCC(=O)Nc1ccc(C)cc1	-9	-1.0	i	0.89	99	.	.
CC(=O)OC(/C(O)=C(\C#N)c1nc2ccccc2[nH]1)c1ccccc1 (stereo not drawn)	-4	-0.3	i	0.89	100	-41	100
O=C(O)CC(NCc1ccco1)C(=O)OCCc1ccccc1 (stereo not drawn)	-2	-2.0	i	1	101	.	.
CC(=O)NC1C(OCc2ccccc2)OC2COC(c3ccccc3)OC2C1OCC(=O)O (stereo not drawn)	-2	.	i	1	97	-42	115
CCC(=O)N/N=c1/sc2ccccc2n1C	-3	.	i	0.94	102	44	99
Nc1c(C(=O)c2ccccc2)oc2ccc(Br)cc12	6	2.7	i	0.98	98	10	118
CNc1ccc([N+](=O)[O-])cc1C(=O)O	.	.	i	0.92	109	.	.
O=c1[nH]c2ccc(S(=O)(=O)N3CCN(c4ccc(F)cc4)CC3)cc2o1	.	.	i	1.1	87	.	.
Cc1ccc(C(c2sc3nc(C)nn3c2O)N2CCN(c3ccc(F)cc3)CC2)cc1 (stereo not drawn)	0	-1.1	i	0.98	104	.	.
CC(C)(C)c1sc(N)nc1-c1ccccc1	10	-1.2	i	0.92	.	43	87
Cn1nnnc1SCC(=O)Nc1cccc([N+](=O)[O-])c1	-8	.	i	0.91	97	.	.
O=C(CN1CCN(S(=O)(=O)c2ccccc2[N+](=O)[O-])CC1)Nc1ccc(N2CCOCC2)cc1	.	.	i	0.83	94	.	.
O=C(O)C1Cc2ccccc2CN1C(=O)c1ccccc1 (stereo not drawn)	-6	-1.3	i	0.89	104	-271	58
CCCC(C)NC(=O)c1nc(-c2ccccc2)n(-c2ccccc2)n1 (stereo not drawn)	-3	-0.9	i	0.97	104	-11	87
CCOC(=O)c1ccc(NC(=O)CCc2nc(-c3ccccc3)no2)cc1	12	-1.3	i	1.1	104	10	118
Cn1ncc(Br)c1C(=O)Nc1ccc(F)cc1F	-1	-2.7	i	0.92	106	45	83
Cc1ccc2nc(NC(=O)C3CCCN(S(=O)(=O)c4cccc5nonc45)C3)sc2c1 (stereo not drawn)	.	.	i	0.94	98	.	.
Cc1ccc(S(=O)(=O)N(CC(=O)N/N=C/c2cccc(C)c2)c2cccc3cccnc23)cc1	1	-1.1	i	0.83	104	3	94
CC(C)(C)OC(=O)CNC(=O)c1nc[nH]c1C(=O)NCC(=O)OC(C)(C)C	.	.	i	0.84	103	.	.
CC(CS(=O)(=O)c1cccc2cccnc12)N1CCCCC1 (stereo not drawn)	-5	-0.8	i	0.93	102	.	.
Cc1cc(C)nc(SC(C)C(=O)O)n1 (stereo not drawn)	-4	-1.9	i	1.2	111	0	114
COc1ccc(NC(=O)c2cc(C)nc3ccccc23)c(OC)c1	-1	.	i	0.94	102	.	.
COc1ccc(-n2c(=S)[nH]c3ncccc3c2=O)cc1	.	.	i	0.96	93	.	.
CCC1=C(OC(=O)N(CC)CC)N2C(=O)OC(=NCC3CC3)[C@]2(Cc2ccccc2)[C@H]2C1=CC[C@H]1C(=O)N(CC)C(=O)[C@H]12	.	.	i	0.8	99	.	.
Cc1ccc(-c2nn(-c3ccccc3)cc2CNCc2ccccc2)cc1	1	.	i	0.89	101	.	.
COC(=O)c1ccccc1NC(=O)Cn1cnc2ccc(S(=O)(=O)N3CCC(C)CC3)cc2c1=O	-8	-0.3	i	0.75	98	-47	43
CCC1S/C(=N/N=C/c2ccco2)N(Cc2ccccc2C)C1=O (stereo not drawn)	.	.	i	0.89	102	.	.
COC(=O)c1ccc(CN2[C@H](C(=O)OC)C[C@@]3(O)[C@@H](O)[C@@H](O)[C@@H](O)C[C@@H]23)cc1	.	.	i	0.97	107	.	.
CC(=O)Nc1ccc(S(=O)(=O)/N=C2\SCCN2S(=O)(=O)c2ccc(NC(C)=O)cc2)cc1	-3	-2.0	.	.	96	.	.
Cc1ccc(/C=N/n2c(-c3ccco3)n[nH]c2=S)s1	-4	-1.8	i	0.91	98	-165	135
COc1cc(/C=C2\CC/C(=C\c3cc(OC)c(OC)c(OC)c3)C2=O)cc(OC)c1OC	11	-1.4	i	1	102	17	92
Cc1cc(=O)cc(C)n1-c1ccc(F)cc1F	-5	.	i	1	107	42	122
CCN(CC)c1ccc(SS(=O)(=O)O)cc1	-4&3	0.5&-1.6	i	0.91&0.93	72&107	11&-16	73&88
Cc1cccc(COc2ncnc3nc[nH]c23)c1	-4	0.2	i	0.89	32	.	.
Cc1cc(C)n(Cc2ccc(Cl)cc2Cl)c(=O)c1S(=O)(=O)c1ccccc1	-14	-0.3	i	0.92	104	0	122
CCC(C)(C)NC(=O)C(c1cccnc1)N(C(=O)c1csnn1)c1ccccc1 (stereo not drawn)	6	.	i	1.1	104	-33	101
O=C(NC(=S)Nc1ccc(N2CCOCC2)c(Cl)c1)c1cncc(Br)c1	-2	-0.1	i	0.93	103	22	98
N#Cc1cn(CCOc2ccccc2F)c2ccccc12	2	-2.5	i	0.91	67	10	138
Cc1cc(OCC(=O)O/N=C(\N)c2ccccc2)cc(C)c1Cl	3	-1.9	i	0.99	100	-17	128
O=C(CSCc1cnn(-c2ccccc2)c1-n1cccc1)NCCN1CCOCC1	0	-2.7	i	0.85	104	-49	70
Cc1ccc(NC(=O)c2cc(Cl)nc3ccccc23)cc1	2	-1.5	i	0.8	96	-40	114
COCc1cc(=O)n2[nH]c(SCc3ccccc3)nc2n1	-4	-1.3	i	0.93	100	-36	112
Cc1cc(=O)c2cc(Cl)ccc2[nH]1	4	-2.8	.	.	111	.	.
COc1ccc(CNc2nc(SCC(=O)NCc3ccco3)nc3ccccc23)cc1	0	-1.0	i	0.86	93	-32	154

15 structures from above, arranged by count of non-hydrogen atoms, ascending:
SMILES	PKD1 kinase inh	GALR2 ag	HSV augment	HSV augment primary fold	RGS16-Gao HTS	Insulin prom inh	Insulin prom inh cell count
CCC(=O)N/N=c1/sc2ccccc2n1C	-3	.	i	0.94	102	44	99
Cc1cccc(COc2ncnc3nc[nH]c23)c1	-4	0.2	i	0.89	32	.	.
Nc1c(C(=O)c2ccccc2)oc2ccc(Br)cc12	6	2.7	i	0.98	98	10	118
Cn1nnnc1SCC(=O)Nc1cccc([N+](=O)[O-])c1	-8	.	i	0.91	97	.	.
CCCCn1nnnc1SCC(=O)Nc1ccc(C)cc1	-9	-1.0	i	0.89	99	.	.
CC(=O)OC(/C(O)=C(\C#N)c1nc2ccccc2[nH]1)c1ccccc1 (stereo not drawn)	-4	-0.3	i	0.89	100	-41	100
O=C(NC(=S)Nc1ccc(N2CCOCC2)c(Cl)c1)c1cncc(Br)c1	-2	-0.1	i	0.93	103	22	98
CCN(Cc1cc(OC)c(OC)c(OC)c1)C(=S)Nc1cccc(SC)c1	.	.	i	0.88	91	.	.
COC(=O)c1ccc(CN2[C@H](C(=O)OC)C[C@@]3(O)[C@@H](O)[C@@H](O)[C@@H](O)C[C@@H]23)cc1	.	.	i	0.97	107	.	.
O=C(CSCc1cnn(-c2ccccc2)c1-n1cccc1)NCCN1CCOCC1	0	-2.7	i	0.85	104	-49	70
COc1ccc(CNc2nc(SCC(=O)NCc3ccco3)nc3ccccc23)cc1	0	-1.0	i	0.86	93	-32	154
COc1cc(/C=C2\CC/C(=C\c3cc(OC)c(OC)c(OC)c3)C2=O)cc(OC)c1OC	11	-1.4	i	1	102	17	92
COc1cc(OC)cc(C(=O)N[C@H](C(=O)OCc2cc(=O)oc3cc(C)ccc23)C(C)C)c1	-2	-1.2	i	0.92	18	-87	51
O=C(CN1CCN(S(=O)(=O)c2ccccc2[N+](=O)[O-])CC1)Nc1ccc(N2CCOCC2)cc1	.	.	i	0.83	94	.	.
COC(=O)c1ccccc1NC(=O)Cn1cnc2ccc(S(=O)(=O)N3CCC(C)CC3)cc2c1=O	-8	-0.3	i	0.75	98	-47	43

(cont.)
SMILES	PKD1 kinase inh	GALR2 ag	HSV augment	HSV augment primary fold	RGS16-Gao HTS	Insulin prom inh	Insulin prom inh cell count
COCCNC(=O)C(c1ccc(C)o1)N(Cc1ccccc1)C(=O)Cn1nnc2ccccc21 (stereo not drawn)	6	-2.5	i	1	106	-10	89
Cc1cc(C(=O)OCC(=O)Nc2sc3c(c2C#N)CCC(C)C3)c2ccccc2n1 (stereo not drawn)	-8	0.4	i	1.2	99	.	.
CCCC(=O)OCC(=O)Nc1ccccc1C#N	-3	.	i	1.1	111	-7	88
CCCCN(CCCC)c1cc(C)nc(-c2ccccc2O)n1	-7	-3.5	i	0.99	105	-20	126
O=C(c1ccco1)N1CCN(S(=O)(=O)c2ccc(Br)s2)CC1	-1	0.1	i	0.92	104	-20	60
Cn1cnnc1SCC(=O)NC1CCCCC1	-5	.	i	1	100	0	98
O=C(CCNS(=O)(=O)c1cccs1)Nc1ccccc1F	1	-0.8	i	0.98	118	34	129
COCCNCCOCCOc1cccc(OC)c1	9	-2.6	i	0.9	85	25	118
Cc1ccc(CNC(=O)C2CCCN(S(=O)(=O)c3cccnc3)C2)cc1 (stereo not drawn)	-6	-3.2	i	1.1	100	-20	122
CCOC(=O)C(NC(=O)CC)(Nc1sc(C)c(CC)c1C#N)C(F)(F)F (stereo not drawn)	7	-1.4	i	1	121	-31	41

Outcome played no part in choosing rows (roughly 1.2% active in at least one column).
